Mtb growth – M. tuberculosis H37Rv growth inhibitors, H37Rv strain (AID 1626); M. tuberculosis H37Rv growth inhibition; higher % means a stronger effect; one-dose inhibition, % at 10 µM; IC50 in µM for titrated hits; actives 0.95% (n = 220,000);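 active = confirmed in a dose series; inconclusive = inhibition above 80% but not taken into the dose series; inactive = below 80% or under 30% at every dose of the series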;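 note: bacteria incubated seven days before Alamar blue readout; 0% = bacteria only wells and 100% = bacteria with antibiotic wells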
RecA intein inh – Mtb RecA intein splicing inhibition. P9WHJ3. cell-free RecA intein splicing, fluorescence. inhibition, %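 (about 9 µM by stock and volumes)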. actives 0.75% (n = 290,000); in the data active = inhibition above about 30%; inconclusive = no clear call, values can overlap the other calls;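 note: 0% = vehicle wells and 100% = reference inhibitor control wells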
Target sequence (P9WHJ3 whole entry, looked up): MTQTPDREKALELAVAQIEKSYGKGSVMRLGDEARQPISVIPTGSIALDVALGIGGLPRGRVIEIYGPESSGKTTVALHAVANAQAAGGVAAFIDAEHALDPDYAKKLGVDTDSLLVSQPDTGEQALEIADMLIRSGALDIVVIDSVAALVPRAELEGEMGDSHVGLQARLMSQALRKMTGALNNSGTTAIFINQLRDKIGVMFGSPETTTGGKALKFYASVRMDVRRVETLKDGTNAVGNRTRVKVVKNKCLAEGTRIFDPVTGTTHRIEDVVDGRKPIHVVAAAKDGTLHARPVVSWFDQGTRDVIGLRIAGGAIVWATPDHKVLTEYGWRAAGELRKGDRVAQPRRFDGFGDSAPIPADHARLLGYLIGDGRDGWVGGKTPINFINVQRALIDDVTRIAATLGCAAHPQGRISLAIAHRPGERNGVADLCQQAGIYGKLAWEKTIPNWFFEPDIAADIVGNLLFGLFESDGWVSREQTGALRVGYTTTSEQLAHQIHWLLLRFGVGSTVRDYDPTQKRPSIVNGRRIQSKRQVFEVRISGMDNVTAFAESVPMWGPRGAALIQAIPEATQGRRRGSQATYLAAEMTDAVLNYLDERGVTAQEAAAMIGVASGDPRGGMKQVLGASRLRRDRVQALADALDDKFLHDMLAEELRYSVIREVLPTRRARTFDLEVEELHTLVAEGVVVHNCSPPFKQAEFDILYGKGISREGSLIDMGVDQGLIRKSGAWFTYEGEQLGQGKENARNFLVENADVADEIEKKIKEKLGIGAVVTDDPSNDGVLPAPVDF
YopH inh – YopH (Yersinia) phosphatase inhibition; inhibition, %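 (about 10 µM by stock and volumes)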; fluorescence Ex485/Em525; actives 0.16% (n = 140,000);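 active = inhibition of 50% or more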;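 note: controls were vehicle for no effect and minimum signal wells for full effect; inactives centre near -20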
Arbovirus anti – blocks arbovirus infection | arbovirus infection cell-based antiviral screen | inhibition, % at 10 µM | actives 0.37% (n = 200,000);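 active = inhibition from about 30%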;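 note: bluetongue infection of BSR cells; cell survival read as ATP light after 72 h; 0% = infected wells without compound and 100% = uninfected wells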
Mtb betalactam – beta-lactam sensitization of Mtb H37Rv. M. tuberculosis H37Rv growth with meropenem, percent inhibition; hits of this screen are not shown here. inhibition, % at 25 µM. actives 0.27% (n = 330,000);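 active = about 74% or more and at least 40 points above the plate without the antibiotic, then above 30% in a dose series; inconclusive = first-round hits that could not be retested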;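 note: growth measured after seven days incubation then overnight dye step; 0% = bacteria only wells and 100% = bacteria with antibiotic; twin plates without the antibiotic show which effects depend on it; some results filed as inactive read as strong as hits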
Arbovirus anti repeat – recorded beside Arbovirus anti, whose call it bears; inhibition, %; measured here: 10K subset replicate screen; many hits read low in the repeat;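 first of two repeat runs on a subset; 0% = infected and 100% = uninfected wells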
Active calls of the source: *; ? = inconclusive; nt = no result given.

SMILES	Mtb growth	RecA intein inh	YopH inh	Arbovirus anti	Mtb betalactam	others
CCC(C)NC(=O)c1ccc(NS(=O)(=O)c2ccc3[nH]c(=O)[nH]c3c2)cc1 (configuration not stated)	nt	3.8	nt	nt	2
C=CCNC(=O)c1cc2c(=O)n3ccccc3nc2s1	nt	-159	nt	nt	4
Cn1c(SCC(=O)NCc2cccs2)nnc1-c1ccc(S(=O)(=O)N2CCCC2)cc1	-7%	3.1	-7	-3	0
CCN(CC)CCNC(=O)CCCNC(=O)Cn1cnc2sc(C)c(C)c2c1=O	-9%	-1.2	-11	4	-8
CCOC(=O)C1CCN(C(=S)Nc2cc(C)ccc2C)CC1	7%	2.9	-8	1	4
CCC(C)C(NC(=O)OCc1ccccc1)C(=O)NCC(c1ccccc1)N(C)C (configuration not stated)	nt	0.7	nt	nt	-3
O=C(CCCNS(=O)(=O)c1cccc2nsnc12)NCCN1CCN(c2ccccc2F)CC1	-3%	0.6	nt	-1	-11
CCOC(=O)C1=C(C)N=c2s/c(=C\c3ccc(OCC(=O)O)cc3)c(=O)n2C1c1ccc(Cl)cc1 (configuration not stated)	nt	-9.2	nt	nt	10
O=C(CSc1ccc(-c2cccnc2)nn1)N1CCCCC1	nt	-0.3	nt	nt	10
NC(CO)(CO)COCc1ccccc1	5%	0.9	nt	12	-5
COc1ccc(CNC(=S)N/N=C(/C)c2ccccc2)cc1	1%	14	nt	nt	88
CS(=O)(=O)c1ccc2nc(NC(=O)C3CC3)sc2c1	nt	-1.6	nt	nt	-6
CCC(C)NC(=O)CS(=O)(=O)Cc1nc(-c2cccc(OC)c2)oc1C (configuration not stated)	-5%	1.1	-6	5	-3	Arbovirus anti repeat=2
O=C(O)C1Cc2ccccc2CN1C(=O)COc1ccc(Br)cc1 (configuration not stated)	-1%	2.3	nt	8	-16
CN(Cc1ccccc1)C(=O)C(C(=O)c1ccc(F)cc1)n1cc(Cl)ccc1=O (configuration not stated)	1%	2.2	nt	-5	7
Cn1c(=O)n(Cc2ccccc2)c(=O)c2c1nc1n2CCCN1C1CCCCC1	nt	-0.6	nt	nt	100
Clc1ccc(Nc2ncnc3c2cnn3-c2ccccc2)cc1	21%	0.6	-31	5	2	Arbovirus anti repeat=13
CCN(CC)S(=O)(=O)c1cc([N+](=O)[O-])ccc1N1CCC(C(N)=O)CC1	-4%	1.2	nt	2	0
CC1=C(C(=O)OCc2ccccc2)C(c2ccsc2)NC(=O)N1C (configuration not stated)	10%	2.9	nt	-6	-1
Cc1ccc(NC(=O)NC2CCCCCCC2)c(C)c1	nt	-0.2	nt	nt	-4
CCC(C)NC(=O)Cn1c(=O)n(-c2ccccc2)c(=O)c2ccc(C(=O)NCc3ccco3)cc21 (configuration not stated)	-7%	nt	-14	6	-1
O=C1OCCC1Sc1nnc(-c2cccnc2)n1-c1ccccc1F (configuration not stated)	-3%	-3.2	nt	11	-2
CCn1ncc(NC(=S)Nc2ccc(OC)c(OC)c2)c1C(N)=O	-4%	-0.1	nt	-3	-2
COc1ccc(CC2S/C(=C(\C#N)C(=O)NCc3ccco3)N(c3ccc(C)cc3)C2=O)cc1 (configuration not stated)	0%	-1.1	-38	10	3
CC(C)(C)c1cc(CCC(=O)NN)cc(C(C)(C)C)c1O	-3%	-1.1	nt	-4	-8
CCN(CC)S(=O)(=O)c1ccc(N2CCCC2)c(NC(=O)C2CCCCC2)c1	0%	1.9	nt	nt	-1
COc1ccc(C(c2c(NC(=O)c3ccccc3)sc(C)c2C)N2CCN(CCO)CC2)cc1 (configuration not stated)	2%	7.0	-13	-22	5
OCCNCc1c(OCc2ccc(Cl)cc2)ccc2ccccc12	nt	-1.3	nt	nt	4
CNS(=O)(=O)c1cccc(C(=O)OCc2cc(Cl)cc3c2OCOC3)c1	-7%	1.1	-48	7	-9
Cc1cc(SCC#N)n2nc(C)c(-c3ccc(Cl)cc3)c2n1	-6%	nt	13	-10	3
O=C(/C=C/c1ccc(O)cc1)OCc1occc(=O)c1O[C@@H]1OC(CO)[C@@H](O)[C@H](O)[C@@H]1O (some centres not stated)	-7%	-2.3	-15	0	8
COc1ccc(COC(=O)c2cc([N+](=O)[O-])ccc2N2CCOCC2)cc1F	nt	2.1	nt	nt	2
Cc1ccc2c(Cl)c(C(=O)NCC3CCCO3)sc2c1 (configuration not stated)	16%	-0.6	-40	-1	26
CCOc1ccccc1N(CC(=O)Nc1ccccc1C(=O)O)S(C)(=O)=O	3%	-17	0	11	5	Arbovirus anti repeat=1
Nc1ccccc1S(=O)(=O)NCCCCc1ccccc1	nt	4.6	nt	nt	-2
CCOc1c(C)cnc2c1c(=O)n(Cc1ccccc1F)c(=O)n2C	nt	1.5	nt	nt	-14

Structural class, the entries above with a thiophene ring, fused or not.
SMILES	Mtb growth	RecA intein inh	YopH inh	Arbovirus anti	Mtb betalactam	others
C=CCNC(=O)c1cc2c(=O)n3ccccc3nc2s1	nt	-159	nt	nt	4
Cn1c(SCC(=O)NCc2cccs2)nnc1-c1ccc(S(=O)(=O)N2CCCC2)cc1	-7%	3.1	-7	-3	0
CCN(CC)CCNC(=O)CCCNC(=O)Cn1cnc2sc(C)c(C)c2c1=O	-9%	-1.2	-11	4	-8
CC1=C(C(=O)OCc2ccccc2)C(c2ccsc2)NC(=O)N1C (configuration not stated)	10%	2.9	nt	-6	-1
COc1ccc(C(c2c(NC(=O)c3ccccc3)sc(C)c2C)N2CCN(CCO)CC2)cc1 (configuration not stated)	2%	7.0	-13	-22	5
Cc1ccc2c(Cl)c(C(=O)NCC3CCCO3)sc2c1 (configuration not stated)	16%	-0.6	-40	-1	26

(continued)
SMILES	Mtb growth	RecA intein inh	YopH inh	Arbovirus anti	Mtb betalactam	others
CC(NS(=O)(=O)c1ccccc1)C(c1cccs1)N1CCOCC1 (configuration not stated)	8%	1.8	-12	2	4
N#C/C(=C\Nc1ccccc1SC(F)(F)F)c1nc(-c2ccccc2)cs1	-5%	-0.4	-34	-2	10
O=C(CSc1nnc(CCCO)n1-c1ccccc1)NCCc1ccccc1	-7%	0.0	-20	5	-1
COc1ccccc1-n1c(O)c(/C=N/N2CCCCC2)c(=O)n(-c2ccccc2OC)c1=S	-1%	-3.5	nt	nt	-2
COc1ccccc1C(=O)CSc1ccccn1	4%	0.8	nt	-6	5
CC(C)NC(=O)c1ccc(-c2ccc(Cl)c(C(F)(F)F)c2)o1	0%	-1.1	-62	1	22
COc1ccc(OCCn2cnc3ccccc32)cc1	nt	-1.2	nt	nt	0
Cc1c(C=C2C(=O)c3ccccc3C2=O)cc(C#N)n1C	-7%	2.4	nt	nt	2
Clc1ccccc1-c1cc(COc2ccc3ccccc3c2)no1	1%	1.1	7	7	59
COCCNC(=O)CCSCc1ccccc1F	-7%	-2.2	-43	7	-2
Cc1cc(C(=O)O)ccc1NCc1ccncc1	nt	1.1	nt	nt	6
Cn1cccc1Cc1nnc(SCC(=O)NCc2ccco2)n1-c1ccc(F)cc1	-7%	2.7	-19	-2	0
CC(C)OC12Oc3ccccc3C=C1N1CCC2CC1 (configuration not stated)	-4%	2.0	-6	-7	-1
O=C(O)CSc1c2c(nc3cc(C(=O)Nc4cccc(C(F)(F)F)c4)ccc13)CCCC2	nt	45*	nt	nt	4
S=c1[nH]nc(-c2ccccc2)n1/N=C/c1cccc(Cl)c1	nt	0.6	nt	nt	-1
CCOc1ccc(N2C(N)=NC(N)=NC2(C)C)cc1	4%	0.2	-17	-3	-4
O=C(CCO)c1ccc(O)cc1	12%	-4.0	nt	7	-1
Cc1c(-c2n[nH]c(=S)n2-c2ccc(C(F)(F)F)cc2)nnn1-c1ccccc1	5%	-7.8	-15	4	4
O=C(NC(=S)NCc1cccnc1)c1ccccc1	-3%	-0.3	-33	7	-7
CCOC(=O)C1(CCCc2ccccc2)CCN(C(=O)CN2CCOC2=O)CC1	-4%	0.3	nt	2	-6
CCCCN1CCc2c([nH]c3c(C)cccc23)C1=O	-8%	2.4	-36	-1	2
Cn1ncc(Br)c1N1C(=O)CCC1=O	-2%	-1.3	nt	nt	-1
CCOC(=O)c1nsnc1NCCSC(=N)N	-5%	-0.7	-25	-3	-10
O=C(NCCCN1CCCCC1)c1ccc(CS(=O)c2ccc(F)cc2)o1 (configuration not stated)	nt	1.1	nt	nt	-11
Cc1ccccc1NC(=O)Cn1nnc(C(=O)NCc2ccco2)c1N	6%	-0.4	nt	-8	4
COc1cc2c(cc1OC)-c1cc(Nc3ccc(C(=O)O)cc3)nc(=O)n1CC2	nt	-6.2	nt	nt	4
NNC(=O)c1cc(-c2cccs2)nc2ccccc12	-1%	nt	nt	nt	7
COc1ccc(CCNC(=O)C23CCC(C)(C(=O)C2Br)C3(C)C)cc1OC (configuration not stated)	1%	2.3	nt	nt	-7
COc1ccc2c(C)cc(SCC(=O)N3CCOCC3)nc2c1	7%	-2.2	-43	2	-4
Cc1cc(NC(=O)c2ccccc2F)cc(C)c1OCC(=O)N1CCOCC1	nt	-1.9	nt	nt	-13
COCCNC(=O)COC(=O)c1cc(-c2ccc(OC)cc2)nc2ccccc12	7%	4.1	nt	-5	5
CC1CCN(c2nc(-c3ccccc3)cc(C(F)(F)F)n2)CC1	0%	7.5	3	15	-6	Arbovirus anti repeat=2
COc1ccccc1-c1coc2cc(OC(=O)N3CCOCC3)ccc2c1=O	1%	1.2	nt	nt	6
CC1=C(C(=O)N2CCN(C(=O)c3ccco3)CC2)C2(CCC(C)CC2)OC1=O (configuration not stated)	-6%	-0.3	-18	-1	?
COc1ccc(S(=O)(=O)N2CCN(c3c(C)cccc3C)CC2)cc1OC	-1%	1.0	-31	14	2	Arbovirus anti repeat=14
CCOC(=O)c1ccc(N=C2NC(=O)CS2)cc1	-3%	nt	-28	-2	-7
O=C(Nc1cccc(-c2nc3ccccc3o2)c1)c1ccc(N2C(=O)C3C4C=CC(C4)C3C2=O)cc1 (configuration not stated)	-4%	0.5	-11	-11	-7
Cc1ccc(NC(=O)c2c(-c3ccccc3Cl)noc2C)nc1	5%	-0.1	nt	nt	-10
Cc1c(C)c2ccc(OCC(=O)N3CCN(c4cccc(Cl)c4)CC3)cc2oc1=O	nt	2.0	nt	nt	11
NC(=O)c1cc2cc(Cl)ccc2oc1=Nc1cccc(C(F)(F)F)c1	nt	-3.4	-32	-4	5
O=C(O)COc1ccccc1/C=N/NC(=O)CN1CCN(S(=O)(=O)c2ccc(Br)cc2)CC1	6%	0.4	nt	nt	16
Cc1ccc(C(OC(=O)c2ccco2)C(=O)NC2CCCCC2)cc1 (configuration not stated)	-6%	-2.2	-4	2	-8
Clc1cccc2sc(N3CCOCC3)nc12	0%	2.6	-35	nt	?
COc1ccc(OCCC(=O)OCC(=O)NCc2ccccc2)cc1	-3%	0.3	-29	5	-9
C=CCOc1ccc(/C=C/C(=O)OCC(=O)NCC(=O)Nc2c(C)cc(C)cc2C)cc1	nt	6.6	nt	nt	-8
CCC(C(=O)Nc1ccc(C(=O)N2CCCC2)cc1)c1ccccc1 (configuration not stated)	4%	6.9	nt	-8	38
COc1ccc(-c2c(C)nn3c(N)c(-c4ccccc4)cnc23)cc1OC	nt	-6.3	nt	nt	8
O=C1Nc2ccc(F)cc2C12SCCS2	nt	-1.7	-49	3	1
Cc1ccc2c(c1)C(=O)CC(O)(C(F)(F)F)O2 (configuration not stated)	0%	-7.7	nt	nt	-4
Cc1ccccc1N1CC(C(=O)Nc2ccc(S(=O)(=O)NCC3CCCO3)cc2)CC1=O (configuration not stated)	nt	-0.9	nt	nt	-6
CCc1ccccc1NC(=O)CCNC(=O)Cn1ccc2ccccc2c1=O	nt	0.2	nt	nt	4
CCOC(=O)C1CCN(c2c(N3CCN(Cc4ccccc4)CC3)c(=O)c2=O)CC1	9%	0.7	-47	1	0	Arbovirus anti repeat=-1
Cc1ccc(-n2c(C)nn(CC3CC3)c2=O)cc1	3%	-0.6	nt	6	-6
Cc1ccc(N(Cc2ccccc2)C(=O)c2cc(S(=O)(=O)N3CCOCC3)ccc2N2CCCC2)cc1	nt	1.8	nt	nt	-9
CN(C)c1ccc(C(=O)C(O)c2ccc(C(C)(C)C)cc2)cc1 (configuration not stated)	1%	3.2	-8	1	11
CCC(C)C(NC(=O)C1CCC(=O)N1C(=O)OCc1ccccc1)C(=O)NC(C(=O)N1CCCC1C(N)=O)C(C)CC (configuration not stated)	nt	0.5	nt	nt	4
O=C(NNC(=O)c1cccnc1)NC12CC3CC(CC(C3)C1)C2	-2%	-1.2	-26	0	1
CCN(c1ccc2c(c1)OCO2)S(=O)(=O)c1cc(Br)cc2c1N(C(=O)C1CC1)CC2	nt	1.2	18	2	-8	Arbovirus anti repeat=-3
Cc1cc(C)c(OCC(=O)N2CC=C(c3ccccc3)CC2)c(C)c1	nt	7.4	nt	nt	-6

Assay outcomes: PubChem, several laboratories

Not all compounds are listed. The share of hits here may be higher or lower than overall.
